High-throughput results as filed in PubChem.
Yeast UUG start – modulators of start codon recognition fidelity in yeast. 0.13% of 350,000 active. activity score, % at 18.7 µM. S. cerevisiae UUG-firefly luciferase reporter, luminescence/redox ratio. AID 602363;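 active means replicate mean at a twofold rise or more, about +100% in these data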;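 further: firefly luciferase made from a UUG start codon reports start codon fidelity; reporter light over untreated wells divided by growth signal over untreated wells; some hits fall short of that in this replicate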
Env fusion inh – blocks HIV Env-driven cell-cell fusion. HeLa-JRFL Env/CEM21 cell fusion, luciferase. inhibition, % at 12.3 µM. 1.1% of 360,000 active. AID 651610;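 active means mean replicate inhibition score of at least 50 and every replicate individually at or above 50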;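 further: 0% = plate neutral controls and 100% = maraviroc near 300 nM; one replicate is shown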
The depositor's hits bear a star; [ ] = remark or other dose. A portion of the library, so the mix of outcomes need not match the whole.

Each structure is followed by: Yeast UUG start | Env fusion inh
- C[C@H]1CCCCO[C@@H](CN(C)C(=O)c2ccccc2)[C@@H](C)CN([C@@H](C)CO)C(=O)c2cc(NS(=O)(=O)c3ccccc3)ccc2O1
    2 | -28[16.7 µM]
- C[C@@H]1CCCCO[C@H](CN(C)S(=O)(=O)c2cn(C)cn2)[C@H](C)CN([C@@H](C)CO)C(=O)c2cc(NS(=O)(=O)c3ccccc3)ccc2O1
    0 | 12[16.7 µM]
- O=C(NCC[C@@H]1CC[C@@H](NC(=O)C2CC2)[C@@H](CO)O1)c1ccc(F)cc1
    -19 | 2[16.7 µM]
- C[C@H]1CN([C@@H](C)CO)C(=O)c2cc(NC(=O)CCC(F)(F)F)ccc2O[C@@H]1CN(C)C(=O)NC1CCCCC1
    13 | 25[16.7 µM]
- O=C(C[C@H]1CC[C@H](NS(=O)(=O)c2ccccc2F)[C@H](CO)O1)NCCCN1CCOCC1
    0 | 12[16.7 µM]
- Cc1ccccc1-c1ccc2c(c1)O[C@H](CN(C)C(=O)c1ccccn1)[C@@H](C)CN([C@@H](C)CO)S2(=O)=O
    0 | -8[16.7 µM]
- C[C@H]1CCCCO[C@@H](CN(C)C(=O)Nc2ccc(F)cc2)[C@@H](C)CN([C@@H](C)CO)C(=O)c2cc(NC(=O)Cc3ccccc3)ccc2O1
    -5 | -30[16.7 µM]
- C[C@@H]1CN([C@@H](C)CO)C(=O)c2cc(NC(=O)c3ccccc3)ccc2O[C@@H](C)CCCCO[C@@H]1CN(C)C(=O)Nc1ccccc1
    3 | 23[16.7 µM]
- C[C@@H]1CCCCO[C@H](CN(C)C(=O)Nc2ccc(C(F)(F)F)cc2)[C@H](C)CN([C@@H](C)CO)C(=O)c2cc(NC(=O)Nc3cccc4ccccc34)ccc2O1
    -12 | -4[16.7 µM]
- O=C(C[C@@H]1CC[C@@H](NC(=O)NC2CCCCC2)[C@H](CO)O1)NCc1ccc(Cl)cc1
    -5 | 8[16.7 µM]
- CCCC(=O)Nc1ccc2c(c1)C(=O)N(C)[C@H]1CC[C@@H](CC(=O)NCCN3CCCCC3)O[C@H]1CO2
    9 | -42[16.7 µM]
- C[C@H](CO)N1C[C@H](C)[C@@H](CN(C)C(=O)Cc2ccncc2)Oc2cc(-c3cncnc3)ccc2S1(=O)=O
    -11 | 12[16.7 µM]
- O=C(O)CCCCCCC(=O)Nc1ccc(C2OC(CSCCO)CC(c3ccccc3)O2)cc1 (configuration not stated)
    -3 | -17[16.7 µM]
- C[C@@H]1CN([C@@H](C)CO)S(=O)(=O)c2ccc(C#CC3CCCCC3)cc2O[C@H]1CN(C)Cc1cccnc1
    -7 | 27[16.7 µM]
- C[C@@H]1CN([C@@H](C)CO)C(=O)c2cc(NS(C)(=O)=O)ccc2O[C@@H](C)CCCCO[C@@H]1CN(C)S(=O)(=O)c1cn(C)cn1
    -3 | -12[16.7 µM]
- CCC(=O)Nc1ccc2c(c1)OC[C@H](C)N(C(=O)c1ccccn1)C[C@H](C)[C@@H](OC)CN(C)C2=O
    1 | -1[16.7 µM]
- O=C(C[C@H]1C[C@H]2c3cc(NC(=O)C4CCC4)ccc3O[C@H]2[C@@H](CO)O1)NCC1CC1
    -1 | -6[16.7 µM]
- CC(C)CC#Cc1cnc2c(c1)C(=O)N([C@H](C)CO)C[C@H](C)[C@H](CN(C)C(=O)Cc1ccccc1)O2
    1 | 49[16.7 µM]
- C[C@H]1CN([C@@H](C)CO)C(=O)c2cccc(NC(=O)C3CCOCC3)c2O[C@H]1CN(C)S(=O)(=O)c1ccc(F)cc1
    4 | -9[16.7 µM]
- C[C@H](CO)N1C[C@H](C)[C@H](CN(C)C(=O)c2ccncc2)Oc2ncc(C#CC3CCCC3)cc2C1=O
    2 | -15[16.7 µM]
- COc1ccc(NC(=O)N(C)C[C@@H]2Oc3ncc(C#Cc4ccc(F)cc4)cc3C(=O)N([C@H](C)CO)C[C@@H]2C)cc1
    -7 | 7[16.7 µM]
- CC(C)NC(=O)Nc1ccc2c(c1)C(=O)N([C@@H](C)CO)C[C@H](C)[C@@H](CN(C)Cc1ccc3c(c1)OCO3)OCCCC[C@@H](C)O2
    11 | -26[16.7 µM]
- C[C@@H]1CCCCO[C@H](CN(C)Cc2ccc(C(=O)O)cc2)[C@@H](C)CN([C@H](C)CO)C(=O)c2cc(NS(=O)(=O)c3cccs3)ccc2O1
    -6 | -4[16.7 µM]
- C[C@H]1CN([C@@H](C)CO)C(=O)c2cc(NC(=O)CCCN(C)C)ccc2O[C@H]1CN(C)S(=O)(=O)c1cn(C)cn1
    -7 | 2[16.7 µM]
- C[C@H]1CN([C@@H](C)CO)S(=O)(=O)c2ccc(-c3ccncc3)cc2O[C@H]1CN(C)Cc1cncnc1
    -9 | 12[16.7 µM]
- CC(C)CC#Cc1ccc2c(c1)O[C@@H](CN(C)C(=O)Nc1ccccc1)[C@H](C)CN([C@H](C)CO)S2(=O)=O
    15 | -7[16.7 µM]
- C[C@@H]1CN([C@@H](C)CO)C(=O)c2cccc(NC(=O)C3CC3)c2O[C@@H]1CN(C)C(=O)Nc1ccc(F)cc1
    7 | -22[16.7 µM]
- O=C(C[C@H]1CC[C@H](NC(=O)C2CC2)[C@@H](CO)O1)NCc1ccncc1
    -8 | -9[16.7 µM]
- COc1ccccc1S(=O)(=O)N[C@@H]1C=C[C@H](CC(=O)N2CCOCC2)O[C@@H]1CO
    14 | -14[16.7 µM]
- COc1ccc(NC(=O)N(C)C[C@@H]2OCCCC[C@@H](C)Oc3ccc(NC(=O)Cc4ccccc4)cc3C(=O)N([C@H](C)CO)C[C@@H]2C)cc1
    -5 | -25[16.7 µM]
- CN(C)CC(=O)N[C@@H]1CC[C@@H](CC(=O)NCc2ccc(Cl)cc2)O[C@H]1CO
    -15 | -16[16.7 µM]
- COc1ccccc1[C@H]1C(c2cccc(C)c2)=NN(c2ccccc2)[C@@H]1CO
    -2 | 25
- CNC[C@@H]1OCCCC[C@@H](C)Oc2ccc(NS(=O)(=O)c3ccc(F)cc3)cc2C(=O)N([C@H](C)CO)C[C@@H]1C
    -7 | 2[16.7 µM]
- CN1CCN(C(=O)C[C@@H]2C=C[C@@H](NC(=O)Cc3ccccn3)[C@@H](CO)O2)CC1
    -16 | -13[16.7 µM]
- O=C(C[C@@H]1CC[C@@H](NC(=O)Cc2ccccn2)[C@@H](CO)O1)NCCc1ccccc1
    -11 | -8[16.7 µM]
- COc1ccc(NC(=O)Nc2ccc3c(c2)C(=O)N([C@@H](C)CO)C[C@H](C)[C@H](CN(C)C(=O)Nc2ccc(F)cc2)OCCCC[C@H](C)O3)cc1
    -11 | -36[16.7 µM]
- COc1ccc(NC(=O)Nc2ccc3c(c2)C(=O)N([C@H](C)CO)C[C@H](C)[C@H](CN(C)Cc2ccc(C(=O)O)cc2)OCCCC[C@H](C)O3)cc1
    21 | 8[16.7 µM]
- C[C@@H]1CN([C@@H](C)CO)C(=O)CCCn2cc(nn2)CO[C@H]1CN(C)Cc1cccc(O)c1
    -3 | 8[16.7 µM]
- CCCN1C[C@@H](C)[C@@H](OC)CN(C)C(=O)c2ccc(NC(=O)C3CCOCC3)cc2OC[C@H]1C
    3 | -6[16.7 µM]
- C[C@H]1CCCCO[C@@H](CN(C)C(=O)C2CCCCC2)[C@@H](C)CN([C@@H](C)CO)C(=O)c2cc(NC(=O)C3CCCCC3)ccc2O1
    9 | -29[16.7 µM]
- Cc1noc(C)c1NC(=O)N(C)C[C@H]1OCCCC[C@H](C)Oc2ccc(NS(=O)(=O)c3cn(C)cn3)cc2C(=O)N([C@H](C)CO)C[C@@H]1C
    -10 | -11[16.7 µM]
- O=C(C[C@@H]1CC[C@H](NC(=O)C2CCOCC2)[C@H](CO)O1)Nc1ccc(-c2ccccc2)cc1
    11 | 1[16.7 µM]
- C[C@H](CO)N1C[C@H](C)[C@H](CN(C)S(=O)(=O)c2ccccc2)Oc2ncc(-c3ccncc3)cc2C1=O
    0 | -26[16.7 µM]
- C[C@@H]1CN([C@H](C)CO)C(=O)Cc2cc(NC(=O)Cn3cnnn3)ccc2O[C@H]1CN(C)S(=O)(=O)c1cccs1
    18 | -13[16.7 µM]
- COc1ccc(CN(C)C[C@H]2OCCCC[C@H](C)Oc3ccc(NS(=O)(=O)c4cccs4)cc3C(=O)N([C@H](C)CO)C[C@H]2C)cc1
    15 | 13[16.7 µM]
- C[C@H]1CN([C@@H](C)CO)C(=O)c2cccc(NC(=O)Nc3ccc4c(c3)OCO4)c2O[C@H]1CN(C)S(=O)(=O)c1ccccc1
    0 | 2[16.7 µM]
- COc1ccc([Si](C)(C)[C@@H]2[C@@H](CCO)O[C@]3(C(=O)N(Cc4ccc(N5CCOC5=O)cc4)c4ccccc43)[C@H]2C)cc1
    -3 | 57*[16.7 µM]
- COc1ccccc1-c1cnc2c(c1)C(=O)N([C@H](C)CO)C[C@H](C)[C@@H](CN(C)C(=O)CC1CC1)O2
    37 | 4[16.7 µM]
- CO[C@H]1CN(C)C(=O)c2cc(NC(=O)c3cnccn3)ccc2OC[C@H](C)NC[C@@H]1C
    -8 | -30[16.7 µM]
- C[C@H](CO)N1C[C@H](C)[C@H](CN(C)S(C)(=O)=O)Oc2c(NC(=O)Nc3cccc4ccccc34)cccc2C1=O
    2 | -7[16.7 µM]
- C[C@@H]1CN([C@H](C)CO)C(=O)Cc2cc(NS(=O)(=O)c3cn(C)cn3)ccc2O[C@H]1CN(C)S(=O)(=O)c1cccs1
    -8 | 10[16.7 µM]
- COCC(=O)Nc1ccc2c(c1)[C@H]1C[C@H](CC(=O)NCc3ccc(OC)cc3)O[C@@H](CO)[C@H]1O2
    -12 | 3[16.7 µM]
- O=C(CN1CCOCC1)N[C@H]1CC[C@H](CCNS(=O)(=O)c2ccccc2F)O[C@H]1CO
    0 | 11[16.7 µM]
- COc1ccc(CNC(=O)C[C@H]2CC[C@H](NC(=O)CN(C)C)[C@@H](CO)O2)cc1
    -10 | -14[16.7 µM]
- CC(C)NC(=O)N[C@H]1CC[C@@H](CCn2cc(-c3ccc(F)cc3)nn2)O[C@H]1CO
    -5 | 10[16.7 µM]
- O=C(C[C@@H]1C=C[C@H](NC(=O)c2ccccn2)[C@@H](CO)O1)NCc1cccc(F)c1
    0 | 4[16.7 µM]
- CC(C)C(=O)Nc1ccc2c(c1)C(=O)N(C)[C@H]1CC[C@@H](CC(=O)NCCCN(C)C)O[C@H]1CO2
    1 | -34[16.7 µM]
- C[C@H]1CN([C@@H](C)CO)C(=O)c2cccc(NS(=O)(=O)c3ccc(F)cc3)c2O[C@H]1CN(C)Cc1ccc(-c2ccccc2)cc1
    15 | 3[16.7 µM]
- N#C[C@@H]1[C@H](c2ccc(C#Cc3ccc(F)cc3)cc2)[C@@H](CO)N1c1nc(-c2ccccc2)cs1
    -16 | 11[16.7 µM]
- Cc1cc(C(=O)Nc2cccc3c2O[C@H](CN(C)Cc2ccc(Cl)c(Cl)c2)[C@H](C)CN([C@H](C)CO)C3=O)n(C)n1
    1 | -49[16.7 µM]

Continued, overlapping the part above by 5 compounds.
Each structure is followed by: Yeast UUG start | Env fusion inh
- O=C(C[C@@H]1C=C[C@H](NC(=O)c2ccccn2)[C@@H](CO)O1)NCc1cccc(F)c1
    0 | 4[16.7 µM]
- CC(C)C(=O)Nc1ccc2c(c1)C(=O)N(C)[C@H]1CC[C@@H](CC(=O)NCCCN(C)C)O[C@H]1CO2
    1 | -34[16.7 µM]
- C[C@H]1CN([C@@H](C)CO)C(=O)c2cccc(NS(=O)(=O)c3ccc(F)cc3)c2O[C@H]1CN(C)Cc1ccc(-c2ccccc2)cc1
    15 | 3[16.7 µM]
- N#C[C@@H]1[C@H](c2ccc(C#Cc3ccc(F)cc3)cc2)[C@@H](CO)N1c1nc(-c2ccccc2)cs1
    -16 | 11[16.7 µM]
- Cc1cc(C(=O)Nc2cccc3c2O[C@H](CN(C)Cc2ccc(Cl)c(Cl)c2)[C@H](C)CN([C@H](C)CO)C3=O)n(C)n1
    1 | -49[16.7 µM]
- COCC(=O)Nc1ccc2c(c1)[C@@H]1C[C@H](CC(=O)NCc3cc(F)ccc3F)O[C@H](CO)[C@@H]1O2
    3 | -11[16.7 µM]
- C[C@@H]1CN([C@@H](C)CO)C(=O)Cc2cc(NC(=O)Nc3ccc(F)cc3)ccc2O[C@H]1CN(C)CC1CCCCC1
    1 | 5[16.7 µM]
- COc1ccc(NC(=O)Nc2ccc3c(c2)C(=O)N([C@@H](C)CO)C[C@H](C)[C@H](CN(C)C(=O)Nc2ccc4c(c2)OCO4)OCCCC[C@H](C)O3)cc1
    -4 | -9[16.7 µM]
- Cc1noc(C)c1NC(=O)Nc1ccc2c(c1)C(=O)N([C@H](C)CO)C[C@H](C)[C@H](CN(C)C(=O)Nc1c(C)noc1C)O2
    12 | 9[16.7 µM]
- COc1ccccc1C#Cc1cnc2c(c1)C(=O)N([C@H](C)CO)C[C@H](C)[C@@H](CN(C)C(=O)CN(C)C)O2
    26 | 2[16.7 µM]
- C[C@@H]1CN([C@H](C)CO)C(=O)Cc2cc(NC(=O)CCCCCC(=O)Nc3ccccc3N)ccc2O[C@H]1CN(C)Cc1ccc(-c2ccccc2)cc1
    3 | 26[16.7 µM]
- CCS(=O)(=O)N[C@@H]1C=C[C@@H](CC(=O)NCc2ccc(F)cc2)O[C@H]1CO
    -8 | -24[16.7 µM]
- C[C@@H]1CN([C@H](C)CO)C(=O)c2cccc(NS(=O)(=O)c3ccccc3)c2O[C@@H]1CN(C)S(=O)(=O)c1ccccc1
    10 | 7[16.7 µM]
- C[C@H](CO)N1C[C@H](C)[C@@H](CN(C)Cc2ccc(C(=O)O)cc2)Oc2ncc(C3=CCCCC3)cc2C1=O
    13 | -3[16.7 µM]
- C[C@@H](NC(=O)C[C@@H]1C[C@H]2c3cc(NC(=O)Nc4ccccc4F)ccc3O[C@H]2[C@@H](CO)O1)c1ccccc1
    -4 | 15[16.7 µM]
